Vaccinia inh: Vaccinia orthopox stage-specific inhibition; Vaccinia-infected cells, mCherry/Venus stage reporter fluorescence; active compounds read low; some inactives read as strong as hits; activity change (mCherry), % (concentration not given with the values); 0.01% of 89,000 active;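 active means mCherry past -33% and 40 or more points under the early reporter, replicates agreeing; inconclusive means past -33% without that gap or agreement; tested in A549 cells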;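 further: scaled between vehicle wells and reference inhibitor wells; 23 nL library stock went into each well; one replicate is shown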
Vaccinia inh Venus: second read-out of Vaccinia inh, no call of its own (marks repeat the call); activity change (Venus), %; measured here: Venus reporter, other viral stage;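 negative = less Venus signal; first of two replicates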
* marks the source's active call; other numbers are inactive results; ? = inconclusive; / = no result given. The list is partial; rates above refer to the full screens.

Start of the data: the first 6 compounds, to show the layout:
molecule	Vaccinia inh	Vaccinia inh Venus
COc1ccccc1NC(=O)N[C@H]1C=C[C@@H](CC(=O)N[C@@H](C)c2ccccc2)O[C@H]1CO	-12	2
COc1ccc2c3c(n(C)c2c1)[C@H](CO)N(C(=O)c1ccc(F)cc1)CC31CN(CC2CC2)C1	-5	-2
Cc1noc(C)c1S(=O)(=O)Nc1ccc2c(c1)C(=O)N([C@@H](C)CO)C[C@@H](C)[C@@H](CN(C)Cc1ccncc1)OCCCC[C@H](C)O2	9	5
C[C@H]1CN([C@@H](C)CO)C(=O)c2cccc(NC(=O)Nc3ccccc3)c2O[C@H]1CN(C)Cc1ccc(-c2ccccc2)cc1	-16	-16
COc1ccc(CN(C)C[C@@H]2OCCCC[C@@H](C)Oc3ccc(NC(=O)Nc4ccc(C(F)(F)F)cc4)cc3C(=O)N([C@@H](C)CO)C[C@H]2C)cc1	-29	-24
O=C(C1CCC1)N1CC2(C1)[C@H](c1ccccc1)[C@@H](CO)N2C(=O)CC1CC1	7	6

Main list, from the start:
molecule	Vaccinia inh	Vaccinia inh Venus
COc1ccccc1NC(=O)N[C@H]1C=C[C@@H](CC(=O)N[C@@H](C)c2ccccc2)O[C@H]1CO	-12	2
COc1ccc2c3c(n(C)c2c1)[C@H](CO)N(C(=O)c1ccc(F)cc1)CC31CN(CC2CC2)C1	-5	-2
Cc1noc(C)c1S(=O)(=O)Nc1ccc2c(c1)C(=O)N([C@@H](C)CO)C[C@@H](C)[C@@H](CN(C)Cc1ccncc1)OCCCC[C@H](C)O2	9	5
C[C@H]1CN([C@@H](C)CO)C(=O)c2cccc(NC(=O)Nc3ccccc3)c2O[C@H]1CN(C)Cc1ccc(-c2ccccc2)cc1	-16	-16
COc1ccc(CN(C)C[C@@H]2OCCCC[C@@H](C)Oc3ccc(NC(=O)Nc4ccc(C(F)(F)F)cc4)cc3C(=O)N([C@@H](C)CO)C[C@H]2C)cc1	-29	-24
O=C(C1CCC1)N1CC2(C1)[C@H](c1ccccc1)[C@@H](CO)N2C(=O)CC1CC1	7	6
CCCN1C[C@H](C)[C@H](OC)CN(C)C(=O)c2cc(NC(=O)c3ccno3)ccc2OC[C@@H]1C	17	11
Cc1ccc(S(=O)(=O)N(C)C[C@H]2Oc3ccc(NC(=O)CCCN(C)C)cc3C(=O)N([C@@H](C)CO)C[C@H]2C)cc1	-9	0
O=C(c1ccc2c(c1)OCO2)N1CC2(C1)[C@@H](c1ccccc1)[C@@H](CO)N2C(=O)C1CCC1	1	6
O=C(C[C@@H]1CC[C@H]2[C@@H](COC[C@H](O)CN2S(=O)(=O)c2ccc(F)cc2)O1)NCC1CCCCC1	-4	3
CCC(=O)N(C)C[C@@H]1Oc2cc(C#CCN(C)C)ccc2S(=O)(=O)N([C@H](C)CO)C[C@@H]1C	5	2
CNC(=O)C[C@@H]1CC[C@@H]2[C@H](COc3ccc(NC(=O)Nc4ccc(F)c(F)c4)cc3C(=O)N2C)O1	-1	-2
C[C@H](CO)N1C[C@H](C)[C@@H](CN(C)C(=O)c2cccnc2)Oc2cc(-c3cccc(C#N)c3)ccc2S1(=O)=O	27	22
CC(C)CC#Cc1ccc2c(c1)O[C@H](CN(C)CC1CC1)[C@H](C)CN([C@@H](C)CO)S2(=O)=O	-31	-31
O=C(C[C@@H]1CC[C@@H]2[C@H](COC[C@H](O)CN2C(=O)Nc2ccc(C(F)(F)F)cc2)O1)NC1Cc2ccccc2C1	-19	-5
COc1ccccc1NC(=O)N[C@H]1CC[C@H](CCNC(=O)Cc2ccccn2)O[C@@H]1CO	6	8
C[C@@H]1CN([C@H](C)CO)C(=O)Cc2cc(N(C)C)ccc2O[C@@H]1CN(C)Cc1ccc(C(=O)O)cc1	7	1
Cc1noc(C)c1S(=O)(=O)Nc1ccc2c(c1)C(=O)N([C@H](C)CO)C[C@H](C)[C@@H](CN(C)C(=O)Nc1ccc(C(F)(F)F)cc1)OCCCC[C@H](C)O2	-34	-20
COc1ccc(S(=O)(=O)Nc2cccc3c2O[C@H](CN(C)S(=O)(=O)c2cccs2)[C@H](C)CN([C@H](C)CO)C3=O)cc1	3	15
CC(=O)N(C)C[C@H]1Oc2cc(C#CC3(O)CCCC3)ccc2S(=O)(=O)N([C@H](C)CO)C[C@H]1C	2	-2
COC(=O)C[C@@H]1CC[C@@H]2[C@@H](COc3ccc(NC(=O)Nc4cc(C)cc(C)c4)cc3C(=O)N2C)O1	-28	-20
C[C@H](CO)N1C[C@H](C)[C@@H](CN(C)C(=O)NC2CCCCC2)OCCCC[C@H](C)Oc2ccc(NC(=O)Nc3ccc(F)cc3)cc2C1=O	13	16
C[C@@H]1CCCCO[C@H](CN(C)Cc2ccc(C(=O)O)cc2)[C@H](C)CN([C@H](C)CO)C(=O)c2cc(NS(=O)(=O)c3ccc(F)cc3)ccc2O1	32	12
N#C[C@@H]1[C@H](c2ccccc2C2=CCCCC2)[C@H](CO)N1C(=O)C1CCOCC1	28	20
C[C@@H](NC(=O)C[C@H]1C=C[C@H](NC(=O)Cc2ccccn2)[C@@H](CO)O1)c1ccccc1	14	11
CCCN(C)C[C@H]1Oc2cc(-c3cccc(C#N)c3)ccc2S(=O)(=O)N([C@H](C)CO)C[C@H]1C	3	-5
CCCNC(=O)C[C@H]1CC[C@H]2[C@@H](COc3ccc(NC(=O)c4cccc(Cl)c4)cc3C(=O)N2C)O1	18	15
COc1ccccc1CN1CC2(C1)[C@H](c1ccccc1)[C@@H](CO)N2Cc1ccccc1	?	/
C[C@H]1CN([C@@H](C)CO)C(=O)CCCn2nncc2CO[C@@H]1CN(C)Cc1ccc(-c2ccccc2)cc1	-6	-9
C[C@@H]1CN([C@@H](C)CO)C(=O)c2cc(NC(=O)c3ccncc3)ccc2O[C@@H](C)CCCCO[C@@H]1CN(C)C(=O)Cc1ccccc1	23	5
Cc1cc(C(=O)Nc2cccc3c2O[C@@H](CN(C)Cc2ccc(C(F)(F)F)cc2)[C@@H](C)CN([C@@H](C)CO)C3=O)n(C)n1	6	5
O=C(Nc1nccs1)[C@@H]1[C@@H](CO)[C@@H]2Cn3c(cccc3=O)[C@@H]2N1C(=O)C1CCCCC1	10	12
CC(C)NC(=O)NCC[C@@H]1CC[C@H](NC(=O)CN(C)C)[C@@H](CO)O1	-1	-1
COc1ccc2c3c([nH]c2c1)[C@H](CO)N(C(=O)NC(C)C)CC31CCN(C(=O)NC2CCCC2)CC1	40	122
CO[C@@H]1CC[C@H]2CCN(C)C(=O)C[C@H](c3ccccc3)CN(C)C(=O)c3cc(C#N)ccc3OC[C@@H]1O2	-12	-12
O=C(NC1CCCC1)N1CC(=O)N2[C@H](C1)[C@@H](c1ccc(/C=C/c3ccccc3)cc1)[C@@H]2CO	?	/

One compound at a time, as listed above. Values in the order: Vaccinia inh	Vaccinia inh Venus
`COc1ccc2c3c([nH]c2c1)[C@H](CO)N(C(=O)NC(C)C)CC31CCN(C(=O)NC2CCCC2)CC1` across the screens: 40	122
`CO[C@@H]1CC[C@H]2CCN(C)C(=O)C[C@H](c3ccccc3)CN(C)C(=O)c3cc(C#N)ccc3OC[C@@H]1O2` across the screens: -12	-12
`C[C@@H](NC(=O)C[C@H]1C=C[C@H](NC(=O)Cc2ccccn2)[C@@H](CO)O1)c1ccccc1` across the screens: 14	11
`Cc1cc(C(=O)Nc2cccc3c2O[C@@H](CN(C)Cc2ccc(C(F)(F)F)cc2)[C@@H](C)CN([C@@H](C)CO)C3=O)n(C)n1` across the screens: 6	5

New compounds follow
molecule	Vaccinia inh	Vaccinia inh Venus
C[C@@H]1CN([C@@H](C)CO)S(=O)(=O)c2ccc(-c3ccc(C#N)cc3)cc2O[C@@H]1CN(C)C	-6	-9
CC(C)CC#Cc1ccc2c(c1)O[C@@H](CN(C)C(=O)C1CCCCC1)[C@@H](C)CN([C@@H](C)CO)S2(=O)=O	?	/
COc1ccccc1NC(=O)N1C[C@@H]2[C@H](c3ccccc31)[C@H](CO)N2C(=O)C1CCCC1	5	0
COc1ccc(NC(=O)N2CC[C@@H]3[C@H]2c2cc(Br)ccc2N(C)[C@@H]3CO)cc1	0	5
C[C@@H]1CN([C@H](C)CO)C(=O)c2cc(NS(=O)(=O)c3cn(C)cn3)ccc2O[C@@H]1CN(C)CC1CC1	14	14
CO[C@@H]1CN(C)C(=O)c2cc(NC(=O)C3CCC3)ccc2OC[C@@H](C)N(Cc2ccncc2)C[C@H]1C	8	4
C[C@@H]1CN([C@H](C)CO)C(=O)c2cccc(NC(=O)c3ccc(-c4nccs4)cc3)c2O[C@@H]1CN(C)S(=O)(=O)c1ccccc1	-2	10
O=C(Nc1ccccc1F)N1CC(=O)N2[C@H](CO)[C@H](c3ccc(C#Cc4ccccc4)cc3)[C@H]2C1	?	/
COc1ccccc1-c1cn(CC[C@@H]2CC[C@H](NC(=O)CCN3CCCCC3)[C@@H](CO)O2)nn1	4	9
CC(=O)N(C)C[C@@H]1Oc2cc(C#CCN(C)C)ccc2S(=O)(=O)N([C@@H](C)CO)C[C@@H]1C	25	21
C[C@H]1CN([C@@H](C)CO)C(=O)c2cc(-c3ccc(F)cc3)cnc2O[C@H]1CN(C)C(=O)C1CCC1	3	7
Cc1noc(C)c1NC(=O)N(C)C[C@@H]1Oc2ccc(NS(=O)(=O)c3ccccc3)cc2CC(=O)N([C@@H](C)CO)C[C@H]1C	23	8
COc1ccc(CN(C)C[C@H]2Oc3ccc(NS(=O)(=O)c4ccc(F)cc4)cc3C(=O)N([C@@H](C)CO)C[C@@H]2C)cc1	5	3
Cc1noc(C)c1S(=O)(=O)N(C)C[C@H]1Oc2ccc(NS(=O)(=O)c3ccccc3)cc2CC(=O)N([C@@H](C)CO)C[C@H]1C	-16	6
CC(C)NC(=O)Nc1ccc2c(c1)C(=O)N([C@@H](C)CO)C[C@@H](C)[C@@H](CN(C)C(=O)Cc1ccccc1)OCCCC[C@@H](C)O2	9	-6
C[C@H](CO)N1C[C@H](C)[C@H](CN(C)Cc2ccccc2C(F)(F)F)OCc2ccccc2-c2ccccc2C1=O	-31	-22
COc1cccc(NC(=O)N[C@H]2CC[C@@H](CC(=O)N3CCN(C)CC3)O[C@H]2CO)c1	13	3
CN(C)C(=O)[C@]1(CCS(=O)(=O)c2ccccc2)N=C(c2ccc(OCCCO)cc2)O[C@@H]1c1ccccc1	?	/
Cc1noc(C)c1NC(=O)N(C)C[C@H]1Oc2c(NC(=O)c3ccncc3)cccc2C(=O)N([C@@H](C)CO)C[C@@H]1C	9	2
C[C@@H]1CCCCO[C@@H](CN(C)C(=O)Nc2ccc(F)cc2)[C@H](C)CN([C@H](C)CO)C(=O)c2cc(NS(C)(=O)=O)ccc2O1	5	-3
CCCNC(=O)N1C[C@@H](C)[C@H](OC)CN(C)C(=O)c2ccc(NS(=O)(=O)CC(F)(F)F)cc2OC[C@@H]1C	15	9
C[C@H](CO)N1C[C@H](C)[C@@H](CN(C)S(C)(=O)=O)Oc2ccc(NS(=O)(=O)c3ccccc3)cc2C1=O	19	13
O=C(C[C@@H]1CC[C@H]2[C@@H](COC[C@H](O)CN2CC2CCCC2)O1)NCc1ccc(Cl)cc1	-14	-6
COc1cccc(S(=O)(=O)Nc2ccc3c(c2)[C@H]2C[C@@H](CC(=O)NCc4ccccc4F)O[C@H](CO)[C@H]2O3)c1	-14	-6
COc1ccc(NC(=O)Nc2ccc3c(c2)C(=O)N([C@H](C)CO)C[C@H](C)[C@@H](CN(C)S(=O)(=O)c2ccc(Cl)cc2)OCCCC[C@@H](C)O3)cc1	20	14
C[C@@H]1CN([C@@H](C)CO)C(=O)c2cccc(NC(=O)c3cnccn3)c2O[C@H]1CN(C)Cc1ccc(C(=O)Nc2ccccc2N)cc1	-20	-16
CNC[C@H]1Oc2ccc(NC(=O)NC3CCCCC3)cc2C(=O)N([C@@H](C)CO)C[C@H]1C	3	-2
C[C@@H]1CN([C@H](C)CO)C(=O)c2cc(N(C)C)ccc2O[C@@H]1CN(C)S(=O)(=O)c1cccs1	5	6
CNC[C@@H]1OCCCC[C@H](C)Oc2ccc(NS(=O)(=O)c3ccc(C)cc3)cc2C(=O)N([C@H](C)CO)C[C@H]1C	-2	12
O=C(N[C@@H]1CC[C@H](CCn2cc(C3(O)CCCC3)nn2)O[C@H]1CO)C1CCC1	-6	-5
COc1ccc(-c2ccc3c(c2)O[C@H](CN(C)Cc2ccccc2C(=O)O)[C@@H](C)CN([C@@H](C)CO)S3(=O)=O)cc1	6	-1
CC(C)(C)S(=O)N1Cc2cc(C(=O)NCc3ccc4c(c3)OCO4)nc(-c3cccc(-c4cccc(F)c4)c3)c2[C@@H]1CCO (stereo partly specified)	17	6
C[C@@H]1CN([C@@H](C)CO)C(=O)c2cc(NC(=O)Nc3ccc4c(c3)OCO4)ccc2O[C@@H](C)CCCCO[C@H]1CN(C)Cc1ccccc1	?	/
O=C(NC1CC1)C1=C[C@H](C2CC2)C[C@H](OCCCCO)O1	6	1
O=C(C[C@@H]1CC[C@@H]2[C@H](COC[C@H](O)CN2Cc2ccccc2F)O1)N1CCc2ccccc2C1	?	/
CNC[C@@H]1OCCCC[C@H](C)Oc2ccc(NS(=O)(=O)c3ccc(F)cc3)cc2C(=O)N([C@H](C)CO)C[C@@H]1C	4	10
O=C(C[C@H]1CC[C@H](NC(=O)CC2CC2)[C@H](CO)O1)NCc1ccccc1	24	15
C[C@@H]1CN([C@@H](C)CO)C(=O)c2c(c3ccccc3n2C)-c2ccccc2CO[C@H]1CN(C)S(=O)(=O)CC(F)(F)F	-30	-23
COc1ccc(C#Cc2ccc([C@H]3[C@@H](CO)N4CCCCN(Cc5ccncc5)C[C@@H]34)cc2)cc1	-9	13
